# Screening results from PubChem.
# AF4-AF9 inh = inhibitors of human MLL-AF4/AF9 interaction. 0.47% of 350,000 active. P42568. inhibition, % at 10 µM. AlphaScreen, biotin-AF4 peptide binding to FLAG-AF9;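 active = every replicate reaching a set inhibition limit, whatever the replicate mean, cut at about 25% in these data; inconclusive = mean inhibition reaches that limit but some replicates miss it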;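 note: 0% = plate neutral control median and 100% = total signal loss; the record names both 10 and 1 µM as test concentration; the first replicate is given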
# Vif A3G = HIV-1 Vif–A3G interaction blockers – biochemical, TR-FRET, GST-Vif 1-94, biotin-A3G peptide, dose response retest, primary screen (AID 1117319). TR-FRET GST-Vif / biotin-A3G peptide binding; higher % means a stronger effect; test concentration not given here; strong numbers were not always called active. one-dose inhibition, %; IC50 in µM for titrated hits. 0.57% of 260,000 active;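 active = above the screen mean plus three standard deviations and confirmed in dose response; inconclusive = results disagree or hit not tested in dose response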;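 note: Vif residues 1-94 fused to GST binding biotinylated APOBEC3G peptide 110-148; 0% = full assay without inhibitor and 100% = GST in place of GST-Vif; retest series ran down from 100 µM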
# Ecoli growth = blocks Escherichia coli growth | 0.21% of 330,000 active | OD600, 23 h; hits give low values | OD600 absorbance (concentration not given with the values);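 active = OD600 absorbance below the run mean of sample wells minus 3.6 SD, in any replicate, cut at about 0.56 in these data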;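 note: stock transfer was 300 nL into about 60 µL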
# RanGTP-Imp inh = disruptors of Ran-importin-beta complex formation – biochemical, FRET, CFP-Ran, YFP-importin-beta, homogeneous, primary screen. inhibition, % (no concentration beside the values). cell-free CFP-Ran/YFP-importin-beta FRET ratio. AID 2216. 1.1% of 300,000 active;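 active = most replicates above 15%; inconclusive = exactly half above 15%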;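 note: 0% = DMSO wells and 100% = Ran loaded with GDP instead of GTP; wells of about 40 µL received 100 nL stock; the first replicate is given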
# UCH37 inh = blocks the human deubiquitinase UCH37 | Q9Y5K5 | purified proteasome/UCH37, Ub-AMC cleavage fluorescence | inhibition, % (no concentration beside the values) | 0.33% of 330,000 active | AID 588478;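 active = mean of two replicates above 20%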;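 note: 0% = compound-free wells with enzyme and 100% = wells lacking proteasome; stock transfer was 100 nL into about 20 µL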
# Target sequence (Q9Y5K5 whole entry, looked up): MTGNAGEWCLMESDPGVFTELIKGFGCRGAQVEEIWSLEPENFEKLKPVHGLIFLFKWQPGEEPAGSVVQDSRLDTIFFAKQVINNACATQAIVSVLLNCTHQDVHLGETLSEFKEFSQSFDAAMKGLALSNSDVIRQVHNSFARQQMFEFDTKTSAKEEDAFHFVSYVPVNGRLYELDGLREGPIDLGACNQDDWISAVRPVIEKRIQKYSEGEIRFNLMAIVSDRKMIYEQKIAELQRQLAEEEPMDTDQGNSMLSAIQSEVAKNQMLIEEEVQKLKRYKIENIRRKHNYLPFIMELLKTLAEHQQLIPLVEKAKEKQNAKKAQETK
#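 Material: human UCH37 enzyme supplied as purified proteasome complex / Amount: 0.15 nM proteasome as dispensed / Buffer or medium: pH 7.4 Tris-HCl (50 mM) with ovalbumin, ATP-MgCl2, DTT / Times: preincubation 30 min, reaction 25 min, room temperature / Technique: AMC fluorescence from Ub-AMC cleavage, excitation 355 nm, emission 460 nm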
# HNF4A DNA FP = change in binding of human HNF4 alpha to DNA. P41235. activity change, % at 10 µM. AID 1224865. 0.3% of 360,000 active. HNF4a-FITC DNA binding, fluorescence polarization, 1 h; in the data active = activity change above about 30%, passing the limit was not always enough;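 note: controls were the assay level and a saturating level of protein; the project sought stronger binding though the title names inhibitors; some compounds called inactive have numbers as strong as hits; positive values seem to mean higher polarization but the record does not say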
# Target sequence (P41235 whole entry, looked up): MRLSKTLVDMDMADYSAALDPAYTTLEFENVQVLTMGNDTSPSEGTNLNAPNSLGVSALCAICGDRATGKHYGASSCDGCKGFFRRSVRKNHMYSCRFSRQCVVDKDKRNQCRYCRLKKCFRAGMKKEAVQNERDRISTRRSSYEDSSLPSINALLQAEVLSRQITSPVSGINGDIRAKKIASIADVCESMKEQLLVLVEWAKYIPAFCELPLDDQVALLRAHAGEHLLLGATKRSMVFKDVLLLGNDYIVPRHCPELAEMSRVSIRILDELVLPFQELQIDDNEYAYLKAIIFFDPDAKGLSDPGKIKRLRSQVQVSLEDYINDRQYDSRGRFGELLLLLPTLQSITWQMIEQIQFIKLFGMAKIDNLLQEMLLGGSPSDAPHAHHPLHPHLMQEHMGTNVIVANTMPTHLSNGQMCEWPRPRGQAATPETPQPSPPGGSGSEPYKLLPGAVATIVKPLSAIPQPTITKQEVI
# FGF22 binding = shifts melting point of recombinant human FGF22; calls only at 9.99 µM; Q9HCT0; recombinant FGF22 thermal shift, SYPRO orange fluorescence; percent of sucrose octasulfate shift, DMSO zero; 1.5% of 340,000 active;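 active = melting point raised past a set limit in the mean and every replicate; inconclusive = no clear call; three in four hits are not shown here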
# Target sequence (Q9HCT0 whole entry, looked up): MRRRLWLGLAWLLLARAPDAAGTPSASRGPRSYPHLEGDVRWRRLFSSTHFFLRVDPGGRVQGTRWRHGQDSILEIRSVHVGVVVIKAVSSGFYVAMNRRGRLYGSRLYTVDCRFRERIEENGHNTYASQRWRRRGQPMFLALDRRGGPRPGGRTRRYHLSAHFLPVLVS
# * marks the source's active call; other numbers are inactive results; i = inactive; ? = inconclusive; . = not tested or not shown; & = joins results of further samples.
SMILES,AF4-AF9 inh,Vif A3G,Ecoli growth,RanGTP-Imp inh,UCH37 inh,HNF4A DNA FP,FGF22 binding
Cc1onc(-c2ccccc2)c1CNC(=O)Nc1cccc(Cl)c1,.,-6.6%,0.659,-1.5,4.7,0.1,i
CC1=C(C(=O)N(C)C)C(c2ccccc2OC(F)F)NC(=O)N1 (stereo unspecified),-1.9,-10.9%,0.69,-0.2,-2.0,-1.6,i
COc1cc2ccccc2cc1C(=O)N/N=C/c1ccc2c(c1)OCO2,-0.2,.,.,-1.5,.,2.2,i
NC(=O)c1nsc(C(=O)N(CC(=O)NC2CCCCC2)Cc2ccc(F)cc2)c1N,-0.8,.,0.665,5.8,-39.2,1.4,i
COC(=O)C1CCN(c2cc(=O)n(-c3ccc(OC)cc3)c(=O)[nH]2)CC1,-4.1,3.1%,0.785,-1.6,4.6,2.2,i
O=C(CCNC(=O)c1ccccc1Cl)Nc1ccc(Cl)c(C(F)(F)F)c1,.,.,0.705,-0.4,2.6,4.8,.
CC(C)CC(=O)Nc1nnn(C)n1,.,3.0%,0.728,-1.1,1.5,2.1,.
COc1ccc(Nc2nc3cc(C)ccc3cc2C#N)c(OC)c1,0.3,1.0%,0.657,-0.3,-3.8,-14.9,i
CC(C)N1CCN(Cc2cc3ccccc3[nH]2)CC1CCO (stereo unspecified),4.2,.,0.655,4.5,0.7,3.5,i
CC(C)[C@H](NC(=O)OCc1ccccc1)C(=O)OCc1cc(=O)oc2cc(O)ccc12,-8.5,-0.2%,0.686,2.4,-83.9,2.1,i
c1ccc2sc(Nc3nc4cc5c(cc4s3)OCO5)nc2c1,.,.,0.72,0.2,-13.0,4.6,.
CCOC(=O)C1CCCN(S(=O)(=O)c2cn(C)c(=O)n(C)c2=O)C1 (stereo unspecified),-1.8,10.2%,0.753,-0.6,1.2,-1.2,i
Cc1cc(C)cc(NC(=O)N2CCC(NC(=O)c3ccccc3C)CC2)c1,.,?,0.708,-6.2,1.1,3.5,.
CC1(C(=O)Nc2ccc3c(c2)OCO3)CCN1C(=O)CC1CC1 (stereo unspecified),0.2,.,.,.,.,-2.4,i
CC(C)C(=O)N1CC(=O)Nc2ccc(F)cc2C1c1ccc(F)cc1 (stereo unspecified),-1.3,1.1%,0.677,2.2,5.4,3.6,i
CCOc1ccc(-n2c(SCC(=O)NC(C)CC)nc3n[nH]c(C)c3c2=N)cc1 (stereo unspecified),.,-15.2%,0.785,0.1,-12.4,-0.3,.
Cc1ccc(-c2nc(CN3CCCCC3c3cccc(F)c3)c(C)o2)o1 (stereo unspecified),7.5,1.5%,0.666,2.3,-2.7,18.5,i
Cc1cc(C(=O)Nc2ccc(N3CCCCC3)cc2)no1,1.5,.,0.644,4.8,-0.2,-1.6,i
COC(=O)Cn1ncc2c3ccccc3n(C)c2c1=O,.,4.8%,0.746,2.5,-3.1,0.7,.
CC(=O)NC1=CC(=C[N+](=O)[O-])C=C1O,-2.5,.,.,.,.,-1.8,i
Cc1ccc(C)n1-c1ccc(-c2nnc3n2CCCCC3)s1,.,8.58µM*,0.644,?,6.9,-0.5,.
O=C(CCc1nc(-c2ccccc2)no1)Nc1cccc(C(=O)NC2CC2)c1,0.2,0.5%,0.697,.,2.1,-4.5,i
Cc1cc(C)nc(OC(=O)c2c(Cl)cc(Cl)cc2Cl)n1,-0.5,18.5%,0.671,7.8,-1.0,-1.1,i
Cc1cc(C(=O)N(NC(=O)C(C)C)c2ccccc2)cs1,-2.2,-6.6%,0.679,-2.1,-2.3,13.3,i
Cc1cc(Br)ccc1NC(=O)C(C)c1ccc([N+](=O)[O-])cc1 (stereo unspecified),-10.4,8.4%,0.672,2.0,2.5,-4.1,i
Cc1ccc(S(=O)(=O)N2CCCCC2CCNC(=O)C(=O)Nc2ccccc2F)cc1 (stereo unspecified),-28.3,.,.,2.6,.,-2.9,i
O=C1CC(C(=O)Nc2ccc(F)cc2)n2cnnc2N1 (stereo unspecified),-1.1,-2.5%,0.692,5.5,-1.7,-0.5,.
N/C(=N\c1nc2c(c(=O)[nH]1)CCCC2)Nc1ccc(Oc2ccccc2)cc1,-0.2,-3.4%,0.737,-2.1,1.8,0.6,i
NC(=O)c1c(NC(=O)c2ccco2)sc2c1CCC2,.,-22.6%,0.672,?,-42.2,1.9,.
CCC1CCCCN1CCCNC(=O)CC1Oc2ccc(C)cc2NC1=O (stereo unspecified),-2.9,32.6%,0.759,?,4.9,5.2,i
Cc1ccc(-c2csc(NC(=O)CCCc3cccs3)n2)cc1,.,12.9%,0.715,2.0,1.6,0.8,.
O=C(Nc1nc2ccc([N+](=O)[O-])cc2s1)c1ccc(S(=O)(=O)N2CCCc3ccccc32)cc1,.,.,0.702,1.1,5.8,9.0,.
O=C(CSc1n[nH]c(-c2cccnc2)n1)Nc1ccc(Cl)cc1,-4.1,.,0.644,6.9,4.4,2.9,i
COc1ccc(CN2CC(C(=O)NCCCN3CCCCC3)CC2=O)cc1 (stereo unspecified),-17.1,.,0.644,-4.2,-2.5,9.5,i
CC1CCCN(S(=O)(=O)c2ccc3[nH]c4c(c3c2)CCCC4)C1 (stereo unspecified),5.0,.,0.669,2.2,-2.1,-2.0,i
CCCC(C)NC1=NCCCCC1 (stereo unspecified),-5.7,4.2%,0.652,3.6,-0.2,-5.0,i
COc1ccc(CNC(=O)C2CCCN(S(=O)(=O)c3cccc4nsnc34)C2)cc1 (stereo unspecified),-1.1,.,0.655,-1.6,2.8,1.2,i
C=CCC1C=C(C)CC(CC=C)N1 (stereo unspecified),-3.7,?,0.646,-2.4,-1.6,-2.4,i
Cc1ccnc(N2CCCC(C(=O)Nc3cc(F)ccc3C)C2)n1 (stereo unspecified),.,67.9%,0.715,-4.8,-7.0,-0.9,.
C=CCN1C=CC=C/C1=C1\SC(=S)N(C)C1=O,-9.0,27.5%,0.639,6.5,9.8,0.6,i

# Arranged by the number under RanGTP-Imp inh (low to high): 4 from the list above.
mol	RanGTP-Imp inh
O=C(Nc1nc2ccc([N+](=O)[O-])cc2s1)c1ccc(S(=O)(=O)N2CCCc3ccccc32)cc1	1.1
O=C1CC(C(=O)Nc2ccc(F)cc2)n2cnnc2N1 (stereo unspecified)	5.5
O=C(CSc1n[nH]c(-c2cccnc2)n1)Nc1ccc(Cl)cc1	6.9
Cc1cc(C)nc(OC(=O)c2c(Cl)cc(Cl)cc2Cl)n1	7.8

# Returning to the listing, repeating the 2 entries before the break.
SMILES,AF4-AF9 inh,Vif A3G,Ecoli growth,RanGTP-Imp inh,UCH37 inh,HNF4A DNA FP,FGF22 binding
Cc1ccnc(N2CCCC(C(=O)Nc3cc(F)ccc3C)C2)n1 (stereo unspecified),.,67.9%,0.715,-4.8,-7.0,-0.9,.
C=CCN1C=CC=C/C1=C1\SC(=S)N(C)C1=O,-9.0,27.5%,0.639,6.5,9.8,0.6,i
O=C(NCc1ccc(-c2nc3ccccc3s2)cc1)c1ccc(Br)o1,0.5,.,0.706,0.9,-2.5,2.8,i
CN1CCN(Cc2cn(C)nc2-c2ccccc2F)CC1c1ccccc1 (stereo unspecified),4.0,-8.1%,0.722,5.0,1.4,0.8,i
COc1cccc(C2C(C#N)=C(N)Oc3cc(C)[nH]c(=O)c32)c1OC (stereo unspecified),.,-5.1%,0.675,1.5,0.5,-2.9,.
C/C(=N/NC(=O)c1ccco1)c1cccc(NC(=O)c2ccc(C)o2)c1,.,2.0%,.,0.6,.,-2.5,.
CCOC(=O)c1cccc(N2CC3CNC(=O)C2(C(=O)OC)N3C)c1 (stereo unspecified),-2.7,.,0.713,.,-9.4,-3.2,i
O=C(c1ccc(Br)cc1)C(CN1CCOCC1)c1ccccc1 (stereo unspecified),1.2,.,0.574,4.0,3.9,1.9,i
CCCCCCCC(=O)OCC(=O)[C@@]1(O)CC[C@H]2[C@@H]3CCC4=CC(=O)CC[C@]4(C)[C@H]3[C@@H](O)C[C@@]21C,-2.0&0.9,.,.,-3.2,0.7,0.6,i
Cc1ccc2nc(NC(=O)C3CCN(S(=O)(=O)c4cnc[nH]4)CC3)sc2c1,.,5.4%,0.692,?,2.4,0.2,.
COc1ccc(-c2noc(CCC(=O)N3CCN(c4cccc(Cl)c4)CC3)n2)cc1,-0.7,.,0.645,.,-1.0,-0.5,i
CC(C)C1Nc2ccc(C(=O)O)cc2C2C=CCC21 (stereo unspecified),1.2,8.06µM*,0.692,-3.9,3.6,-30.6,.
CC/C(C)=N/Nc1cccc([N+](=O)[O-])c1,1.0,26.4%,.,?,.,-1.1,i
COC(=O)c1ccc(N2CCN(c3ccccc3)CC2)nc1,1.2,1.3%,0.67,-4.8,-4.0,-5.0,i
O=C(O)/C(=C1\OC(=O)c2ccccc21)c1ccccc1,.,4.5%,0.761,4.2,1.0,-0.4,.
CCC(=O)N1CCCC(C)(C(=O)Nc2ccc3scnc3c2)C1 (stereo unspecified),-1.0,.,.,.,.,4.1,i
COc1cc(-c2noc(C)c2C#Cc2ccccn2)cc(OC)c1OC,1.6,.,0.68,4.0,-4.0,-1.8,i
Cc1cc(C(=O)Nc2ccc3c(c2)CCC3)c2ccccc2n1,.,-5.5%,0.712,-3.4,0.1,5.9,.
OC[C@@H]1CN(Cc2cccs2)C[C@H](n2cnc3c(NCc4ccc(F)cc4)ncnc32)O1,1.2,.,.,.,.,1.5,i
Cc1ccccc1OCc1nc2c3cnn(C)c3ncn2n1,.,0.9%,0.747,0.5,1.2,-5.1,.
O=C(NCC1CCCN(C(=O)c2cscn2)C1)c1ccc(-c2ccccc2)cc1 (stereo unspecified),-2.0,-3.4%,0.697,-0.4,3.5,1.3,i
Cc1ccnc(NC(=O)c2cccc(S(=O)(=O)N3CCCc4ccccc43)c2)c1,-2.9,-6.3%,0.7,?,-0.1,-1.3,i
COc1ccccc1Cn1c(=O)oc2ccc(C)cc21,-0.8,-10.4%,.,?,.,1.5,i
CCC(=O)Oc1ccc(NC(=O)c2ccco2)cc1,-2.4,-4.6%,0.689,0.2,0.6,0.2,i
OCC1(Cc2cccc(Cl)c2)CCCN(Cc2cnn(-c3ccccc3)c2)C1 (stereo unspecified),5.4,-7.3%,0.665,2.7,2.0,-5.6,i
Cc1ccc(-n2c(SCC(=O)N/N=C/c3ccc(C)s3)nnc2-c2ccccc2)cc1,-29.3,-2.7%,.,?,.,1.9,i
O=C(NCc1ccc(F)cc1F)[C@@H]1CCCN1C(=O)[C@@H]1CCCN1C(=O)c1cccs1,-4.4,.,.,.,.,-4.2,i
COc1ccc(/C=C/c2nc3cc(-c4ccccc4)ccc3o2)cc1O,13.0,20.7%,0.74,2.1,-222.6,0.7,i
CN(C1=C(N2CCOCC2)C(=O)c2ccccc2C1=O)c1ccccc1,.,.,0.703,-2.3,6.7,6.9,.
CC(=O)NC(=S)Nc1cc(C(F)(F)F)ccc1N1CCOCC1,.,22.9%,0.63,4.5,0.4,-2.1,.
O=P1(O)Cc2ccccc2-c2ccccc21,-5.3,-2.8%,.,.,.,-1.6,i
CNC(=O)c1nn(C)c(=O)[nH]c1=O,2.3,1.5%,0.683,.,0.8,0.3,i
CCN1CCN(c2cc(C)c3cc(NC(=O)c4ccc(C)c(C)c4)ccc3n2)CC1,8.0,-6.2%,0.637,-4.1,-0.9,-0.2,i
COc1cc(C2Nc3cccc4cccc(c34)N2)ccc1OC(C)=O,.,31.9%,0.631,-5.8,6.3,0.8,.
Cc1c(Cl)cccc1NC(=O)C(=O)NNS(=O)(=O)c1ccc(F)cc1,.,.,0.65,0.2,0.7,-1.1,.
CC(O)CCC(=O)NNC1=CC(=O)CC(C)(C)C1 (stereo unspecified),.,-3.1%,0.692,?,1.1,.,.

# These rows are one share of the data; rates above refer to the full screens.
